# Screening results: PubChem, National Center for Advancing Translational Sciences (NCATS)
# Vaccinia Venus = inhibitors of vaccinia virus (Venus reporter); AID 720580; Potency, µM (doses to about 36.5 µM), for inactives: top-dose activity change, negative = inhibition, usual class: inhibitors; Vaccinia virus Venus reporter expression, fluorescence; 330,000 tested, 0.46% active; active means well fitted inhibition curve with a large enough effect; inconclusive means small, poorly fitted or top-dose-only effect; inactive means no such curve, though single readings can be large or run the other way; tested in A549 cells; further: nearly all actives have a fitted effect of over 30% in size; inactives centre near -10
# VACV mCherry inh = vaccinia inhibition (mCherry reporter) | Vaccinia virus mCherry reporter infection, fluorescence; about a quarter of the inactives have no number | Potency, µM (doses to about 36.5 µM), without a hit: at the top dose activity change, negative = inhibition, usual class: inhibitors | 310,000 tested, 0.63% active | AID 720579; active = well fitted inhibition curve with a large enough effect; inconclusive = small, poorly fitted or top-dose-only effect; inactive = no such curve, though single readings can be large or run the other way; tested in A549 cells; further: nearly all actives have a fitted effect of over 35% in size; inactives centre near -10
# Starred values were filed as active, the others as inactive; i = inactive; ? = inconclusive; . = no result given; & = joins results of further samples; [ ] = remark or other dose. On the % scale 0 is the no-effect control and ±100 the full control effect; potency means the concentration at half of the fitted maximal effect.
1: CCOc1ccc(OCCC(=O)OCC(=O)N2CCN(c3ccc(OC)cc3)CC2)cc1
2: CCO/C=C1/C(=O)N(C)C(=O)c2cc(OC)ccc21
3: COC(=O)c1sccc1NC(=O)CSc1cc(Cl)ccc1Cl
4: O=C(Nc1ccccn1)c1sc2cccc(F)c2c1Cl
5: NCc1csc(Nc2ncccn2)n1
6: Cc1c(C(C)O)nnn1-c1nonc1N (centres undefined)
7: O=C(Nc1ccccc1)Nc1cc(OCC(F)(F)F)cc(OCC(F)(F)F)c1
8: O=C(Nc1c(F)cc(F)cc1Br)c1cc(-c2ccc(O)cc2)on1
9: CCOc1ccc(S(=O)(=O)N/N=C(\C)Cc2ccc(OC)cc2)cc1
10: Cc1cc(-c2ccccc2)oc(=O)c1NC(=O)c1ccccc1

assay / entry	1	2	3	4	5	6	7	8	9	10
Vaccinia Venus	3%	?	-30%	1%	-8%	-1%	?	-18%	-6%	-18%
VACV mCherry inh	-15%	.	.	-1%	23%	-9%	?	i	-4%	-21%

11: CCN(CC(=O)Nc1ccc(OC)cc1)C(=O)Cc1cccs1
12: CCOc1ccc(CNC(=O)c2cnc3sc(N4CCOCC4)nn3c2=O)cc1
13: Cc1[nH]nc2c1C(C(C)c1ccccc1)C(C#N)=C(N)O2 (centres undefined)
14: COC(=O)C1=C(c2c(C)noc2C)C[C@@H]2CC[C@H]1N2C(=O)N1CCCCC1
15: CN=c1scc(-c2cccs2)n1/N=C/c1ccccc1O
16: C=C(C)CC(NCc1ccco1)c1ccc(OC)cc1 (centres undefined)
17: C=CCNC(=O)C1CCN(c2cc(C)nc(-c3ccccc3)n2)CC1
18: CCn1c(C)nc2cc(C(=O)NNC(=O)Nc3ccc(Cl)cc3)ccc21
19: CC(C)(C)C1=Nn2c(nnc2C2CCCCC2)SC1
20: O=C(OCc1nc2scc(-c3ccccc3)c2c(=O)[nH]1)c1ccco1

assay / entry	11	12	13	14	15	16	17	18	19	20
Vaccinia Venus	-1%	-12%	-9%	-1%	?	?	-19%	-5%	-13%	-13%
VACV mCherry inh	-2%	-6%	i	-12%	?	.	-8%	-13%	i	0%

21: CC(C)(Oc1ccc(Cl)cc1)C(=O)N1CCC(C(N)=O)CC1
22: O=C(NCCCc1ccccc1)C(=O)NCC1OCCN1S(=O)(=O)c1ccc(F)cc1 (centres undefined)
23: CCOc1ccc2nc(NCCCO)[nH]c2c1
24: Cc1ccc2cc(C)c(SCC(=O)NCc3ccco3)nc2c1
25: CN(CCc1ccccc1)C(=O)c1ccc(NC(=O)Cc2ccc(NC(=O)C3CCCN(C(=O)CCc4ccccc4)C3)cc2)cc1 (centres undefined)
26: CCOc1ccc(CNC(=O)C2CCN(S(=O)(=O)c3cn(C)cn3)CC2)cc1
27: Cc1ccc(Cn2nnnc2CN2CCC(n3nnc4cc(C)ccc43)CC2)cc1
28: Cc1nnc(N(Cc2ccccc2)C(=O)c2cnccn2)s1
29: O=C1C=C(c2cc3ccccc3s2)C[C@@H](c2ccc(Cl)cc2)C1
30: CN1CCN(C(=O)C2=C[C@@H](c3ccccc3)C[C@@H](OCCCCO)O2)CC1

assay / entry	21	22	23	24	25	26	27	28	29	30
Vaccinia Venus	-17%	-13%	-6%	-8%	?	-13%	-18%	-5%	-19%	-13%
VACV mCherry inh	-4%	i	-14%	-7%	?	-15%	-27%	-12%	-9%	i

# Entries of single compounds, looked up by structure.
# CCOc1ccc(CNC(=O)C2CCN(S(=O)(=O)c3cn(C)cn3)CC2)cc1 as listed: Vaccinia Venus: -13%; VACV mCherry inh: -15%
# O=C1C=C(c2cc3ccccc3s2)C[C@@H](c2ccc(Cl)cc2)C1 as listed: Vaccinia Venus: -19%; VACV mCherry inh: -9%

# (list continues)
31: CCN(C(=O)Cn1nc(C)c([N+](=O)[O-])c1C)C1CCS(=O)(=O)C1 (centres undefined)
32: CCOC(=O)[C@H]1[C@H]2COc3ccc(Br)cc3[C@@H]2N2C(=O)N(c3ccc(F)cc3)C(=O)[C@@]12C
33: CCOc1ccccc1C=NNC(=O)c1cccc2ccccc12
34: O=C(COC(=O)c1cc(Br)ccc1O)Nc1ccc2c(c1)OCCO2
35: CCOC(=O)c1c(NC(=O)c2cc(-c3ccc(O)cc3)on2)sc(C(C)=O)c1C
36: O=C(/C=C/c1ccc(O)c(O)c1)NC(=O)c1ccccc1O
37: COc1ccc(/C=N/Nc2ncnc3sc4c(c23)CCCC4)cc1O
38: NC(=O)[C@H]1CC2(CC(c3cccc(NC(=O)[C@H]4CCC(=O)N4)c3)=NO2)CN1C(=O)CC(c1ccccc1)c1ccccc1 (some centres undefined)
39: CC1(C)O[C@@H]2[C@H](O1)[C@@H](CO)O[C@H]2n1c(N2CCCCC2)nc2c(N)ncnc21
40: C=CC[C@@H](CC(=O)N[C@@H](CO)Cc1ccccc1)C(=O)N[C@@H](COC(=O)[C@@H](CC=C)Cc1ccc(F)cc1)Cc1ccccc1

assay / entry	31	32	33	34	35	36	37	38	39	40
Vaccinia Venus	-1%	-20%	-16%	-9%	?	9%	?	-7%	-16%	-19%
VACV mCherry inh	-11%	-8%	-2%	-1%	-1%	-1%	-30%	?	i	-13%

41: COc1ccc(S(=O)(=O)N2CCOCC2)cc1NC(=O)Cc1sc(C)nc1-c1ccc(F)cc1
42: CCN(CC(=O)Nc1c(F)cccc1F)C(=O)c1cc2ccccc2oc1=O
43: Cn1cccc1Cc1nnc(SCC(=O)NCCc2ccccc2)n1-c1ccc(F)cc1
44: COc1cccc(CNC(=O)c2cccc(-n3c(C)nc4cccnc43)c2)c1OC
45: CCCCC1=CC2=CC(=O)C(C)(OC(=O)CC)C(=O)C2=CN1Cc1ccco1 (centres undefined)
46: O=C(O)/C=C/c1cn(Cc2ccccc2Cl)nc1-c1ccccc1
47: Cc1cccc(CC(=O)Nc2cc(C)c3c(=O)oc4ccccc4c3n2)c1
48: O=C(CNCCc1ccccc1)Nc1ccc(C(=O)N2CCCCC2)cc1
49: Cc1c(C(=O)NCCc2ccccc2)oc2ccc(S(=O)(=O)N3CCOCC3)cc12
50: CC(C)(C)S(=O)N1Cc2cc(C(=O)N3CCOCC3)nc(-c3cccc(Br)c3)c2[C@H]1CCO (some centres undefined)

assay / entry	41	42	43	44	45	46	47	48	49	50
Vaccinia Venus	-12%	-5%	-6%	-9%	0%	-5%	-18%	-18%	-4%	7%
VACV mCherry inh	-19%	-1%	-6%	-18%	i	-16%	-7%	-15%	-9%	21%

51: COc1ccccc1OCc1ccc(C(=O)N2CCN(C(=O)c3ccco3)CC2)cc1
52: CCCCn1c(N)c(N(C)C(=O)C2CC(=O)N(Cc3ccco3)C2)c(=O)[nH]c1=O (centres undefined)
53: COc1ccc(NC(=O)CCN2C(=O)C3CC=C(Cl)CC3C2=O)cc1 (centres undefined)
54: Cc1ccccc1OCc1ccc(-c2nc(C#N)c(N3CCCCC3)o2)o1
55: Cc1cc(Cl)ccc1C(=O)C1CCCN(C(=O)c2cc(C(C)C)no2)C1 (centres undefined)
56: CC(C)c1ccc(OCC(=O)Nc2c(Cl)ccc3nsnc23)cc1
57: CN(C)c1ccc(/C=C(\Cl)c2nc3ccccc3s2)cc1
58: CC(=O)Nc1ccc(-c2ccnc3c2CC(C(=O)Nc2cccc(Oc4ccccc4)c2)O3)cc1 (centres undefined)
59: Cc1cc2nc(CCN3CCOCC3)n(S(=O)(=O)c3ccc(C(C)(C)C)cc3)c2cc1C
60: O=C1COc2ccc(C(=O)COC(=O)c3ccc([N+](=O)[O-])cc3Cl)cc2N1

assay / entry	51	52	53	54	55	56	57	58	59	60
Vaccinia Venus	-12%	-10%	-3%	1%	5%	-2%	-14%	-29%	-1%	-3%
VACV mCherry inh	i	i	i	-4%	-6%	-9%	i	-12%	-14%	i

61: CCOC(=O)C1(CCc2ccccc2)CCN(C(=O)c2cc(C)nc(C)n2)CC1
62: O=C(COC(=O)c1cccs1)Nc1cccc(S(=O)(=O)NC2=NCCCCC2)c1
63: O=C(c1ccccc1-c1ccccc1)N1CCCCC1
64: Cc1cc(NC(=O)COC(=O)CCS(=O)(=O)c2ccc(Cl)cc2)no1
65: CCc1ccc(-n2c(=O)c3cccnc3n2CC(=O)NCc2ccc(F)cc2)cc1
66: Oc1ccc(C=NC2CCCCC2)c(O)c1
67: N/C(CN1CCSCC1)=N\OCc1c(F)cccc1Cl
68: COc1cc(C2CC(=O)N(Cc3cccc(F)c3)c3ccccc3S2)cc(OC)c1OC (centres undefined)
69: CCOc1ccc(N2CC(C(=O)NCCc3ccccc3)CC2=O)cc1 (centres undefined)
70: Cc1ccc(CNC(=O)CCCn2c(=O)c3ccccc3n(Cc3ccc(Cl)cc3)c2=O)cc1

assay / entry	61	62	63	64	65	66	67	68	69	70
Vaccinia Venus	0%	-3%	1%	2%	-2%[7.34 µM]	2%	-2%	-26%	-5%	-15%
VACV mCherry inh	i	i	i	-6%	-1%[7.34 µM]	i	-3%	-30%	-15%	-20%

# Laid out differently: results already given.
56. CC(C)c1ccc(OCC(=O)Nc2c(Cl)ccc3nsnc23)cc1
  Vaccinia Venus: -2%	VACV mCherry inh: -9%

57. CN(C)c1ccc(/C=C(\Cl)c2nc3ccccc3s2)cc1
  Vaccinia Venus: -14%	VACV mCherry inh: i

58. CC(=O)Nc1ccc(-c2ccnc3c2CC(C(=O)Nc2cccc(Oc4ccccc4)c2)O3)cc1 (centres undefined)
  Vaccinia Venus: -29%	VACV mCherry inh: -12%

59. Cc1cc2nc(CCN3CCOCC3)n(S(=O)(=O)c3ccc(C(C)(C)C)cc3)c2cc1C
  Vaccinia Venus: -1%	VACV mCherry inh: -14%

# Later entries
71: CC(CC(=O)c1cccs1)CC(=O)c1cccs1
72: Cc1nc(NCCc2ccc(O)cc2)c2nnn(Cc3ccccc3)c2n1
73: Nc1nnc(SCc2ccccc2F)n1-c1ccccc1
74: Oc1[nH]c2ccccc2c1N=NC(=S)NCCc1ccccc1
75: Cc1nc(N)c(Br)c(C)c1Br
76: Cc1cc(F)ccc1NC(=O)C1CSC2(C)CCC(=O)N12 (centres undefined)
77: O=C(CC1C[C@H](C(=O)N2CCOCC2)[C@@]2(CCC3CCCC3)c3[nH]c4ccccc4c3CCN2C1=O)NCCc1ccccn1 (some centres undefined)
78: O=C1COc2cc(S(=O)(=O)CCC(=O)N3CCCCC3)c(Cl)cc2N1
79: C[C@@H]1CN([C@H](C)CO)C(=O)CCCn2cc(nn2)CO[C@H]1CN(C)S(=O)(=O)c1cccc(F)c1
80: COc1ccc(N2CCN(C(=O)CCSCc3ccccc3F)CC2)cc1

assay / entry	71	72	73	74	75	76	77	78	79	80
Vaccinia Venus	-7%	-18%	-7%	-17%	-13%	-8%	?	-17%	-4%	-9%
VACV mCherry inh	i	-16%	-5%	-37%	-16%	i	-24%	i	i	?

81: O=C(NCC1CC1)[C@]1(C(F)(F)F)C[C@H](CCC2CCCCC2)CCCO1
82: CCCn1c(N2CCN(C)CC2)nc2c1c(=O)[nH]c(=O)n2C
83: COC(=O)c1ccc(NC(=O)CC2C(=O)N(c3ccccc3)C(=O)N2Cc2cccs2)cc1 (centres undefined)
84: CCOc1ccccc1NC(=O)COC(=O)C1COc2ccccc2O1 (centres undefined)
85: CCn1c(=O)c2cc(C(=O)N3CCN(c4cccc(Cl)c4)CC3)sc2c2ccccc21
86: COc1cccc2c1O/C(=N\O)C(C(=O)Nc1cccc(Br)c1)C2 (centres undefined)
87: O=S(=O)(c1ccc(Cl)cc1)N1CCN=C1SCc1ccc(Cl)c(Cl)c1
88: Cc1cc(NS(=O)(=O)c2ccc(NC(=O)/C=C/c3ccccc3)cc2)no1
89: Cc1ccc(NC(=O)CCCN2C(=O)/C(=C/C=C/c3ccccc3)SC2=S)cc1
90: Cc1nc2sc(C(c3ccccc3)N3CCN(c4ccccc4F)CC3)c(O)n2n1 (centres undefined)
91: CCOC(=O)C1CCN(S(=O)(=O)c2ccc3c(c2)N(C)C(=O)CC(=O)N3C)CC1
92: COc1ccc(CCN(C)Cc2nc(-c3cnccn3)no2)cc1OC

assay / entry	81	82	83	84	85	86	87	88	89	90	91	92
Vaccinia Venus	-13%	-4%	-2%	-1%	-9%	-27%	-3%	-12%	6%	-12%	-15%&-8%	0%[7.34 µM]
VACV mCherry inh	i	-12%	-15%	i	-8%	-3%	-8%	i	9%	-20%	-12%	i[7.34 µM]

# Hits appear at their usual frequency; overall some 0.88% were active at least once.
